# Anaer choline gr – choline-fed anaerobic bacterial growth inhibition. hit rate 0.2% among 55,000. Gram-negative bacterium anaerobic choline minimal medium, absorbance growth; stronger effect = lower value; many inactives read as strong as hits in the columns shown. AID 1963822. calls only;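 active means growth z-score on choline under -2 at 7 or 20 h with little or no fall on glycerol, limits in tiers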;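 further: stock transfer was 300 nL into about 50 µL; the organism is E. coli; final concentration not given here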
# Anaer choline gr early – also measured in Anaer choline gr; calls as there; z-score; measured here: choline growth z-score, timepoint 1;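 score of optical density at 7 h as mean of two plates; lower means less growth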
# * = called active by the depositor; i = inactive; + = active, no number; & = joins results of further samples; ! = not confirmed by another sample. Not all compounds are listed; count on the stated rates, not on these rows.
SMILES,Anaer choline gr,Anaer choline gr early
CCOc1ccc(Nc2nc(C)c(NC(=O)Cc3ccc(OC)cc3)c(Nc3ccc(OCC)cc3)n2)cc1,i,0.81
Cc1ccc(C)c(NC(=O)NCCCn2c(-c3ccncc3)nc3cccnc32)c1,i,-2.2
CC(C)C(NS(=O)(=O)c1ccc2c(c1)CCCC(=O)N2)C(=O)Nc1ccc(Cl)cc1 (configuration not stated),i,-0.56
O=C(NCCc1csc(-c2ccccc2)n1)[C@H]1CCCN1S(=O)(=O)c1cccc2nsnc12,i,0.12
CCCC(=O)Nc1cc(Cl)ccc1OCc1cc(=O)n2oc(C)cc2n1,i,0.19
CCN(C(=O)Cn1cc(S(=O)(=O)Cc2ccccc2)c2ccccc21)c1ccccc1,i,0.81
O=S(=O)(NCc1cccnc1)c1ccc2[nH]c3c(c2c1)CCCC3,i,-0.18
CC1CCC(NC(=O)C2CCN(c3ccc4cc(S(=O)(=O)N5CCCCC5)ccc4n3)CC2)CC1 (configuration not stated),i,0.22
COc1ccc(C2CC(=O)C3=C(C2)Nc2onc(C)c2C3c2cccnc2)cc1 (configuration not stated),i,0.64
Cc1ccc(-c2nc(CN3CCN(C(=O)c4ccccc4Br)CC3)c(C)o2)cc1,i,-1.4
Cc1oc(-c2ccccc2)nc1Cn1nnc(-c2nc(-c3ccc(F)cc3)no2)c1C,i,-0.47
CCOc1ccc(Nc2nc(C)c3ncn(-c4ccc(OCC)cc4)c3n2)cc1,i,0.89
CN(C)CCNC(=O)CN1CCN(Cc2ccccc2)C(=O)C1=O,i,-1.9
CCCCN(C)S(=O)(=O)c1ccc2c(c1)N(Cc1noc(C)n1)C(=O)CO2,i,-0.45
Cc1ccc(NC(=O)CSc2nc3ccccc3c(=O)n2CCc2ccc(S(N)(=O)=O)cc2)cc1,i,0.94
CCn1cnc2c(-c3cccc(Cl)c3)csc2c1=O,i,-0.17
Cc1nc2nc(N(Cc3c(F)cccc3Cl)S(=O)(=O)c3ccccc3)nn2c(C)c1Cl,i,-0.19
Cc1cc(=O)n2[nH]c(CN(C(=O)c3ccc(F)cc3)c3ccc(F)cc3)nc2n1,i,0.27
COc1ccc(CNCc2c(C(=O)O)c(C)n(-c3ccccc3)c2C)c(OC)c1,i,-0.12
CNC(=O)c1cc2c(cc1C)OCCCO2,i,-0.5
CCNc1nc(C(N)=O)c(NC(=O)c2cc(-c3ccc(OC)cc3)nc3ccccc23)s1,i,-0.7
COc1ccc(S(=O)(=O)[C@H]2CS(=O)(=O)C[C@@H]2N2CCCC2)cc1,i,-0.01
Fc1cccc(-c2nn3c(-c4ccc5ccccc5n4)nnc3s2)c1,i,0.26
CC[N+](CC)(CC)CCOc1ccc(/C=C/c2ccccc2)cc1,+!,-2.5*!
CCOC(=O)C1CCN(C(=O)c2ccc(NC(=O)N3CCSc4nc(C)cc(C)c43)cc2)CC1,i,-0.04
O=C(CC1COc2ccccc2N1Cc1ccccc1)NCc1ccccc1 (configuration not stated),i,0.48
CCOC(=O)c1nc(NC2CCCc3ccccc32)c2c(CC)noc2n1 (configuration not stated),i,0.06
Cc1ccc(-c2nc3nc(CN4CCC(C)CC4)cc(=O)n3[nH]2)cc1C,i,-0.32
O=C(CSc1nc2ccccc2c(=O)[nH]1)Nc1ccc(Cl)cc1,i,0.6
Cc1cc(C)n(-c2nc(C)c(C(=O)N3CCCC3)s2)n1,i,0.42
CCc1ccc(NC(=O)Nc2ccc(SCc3nnc(-c4ccccc4)o3)cc2)cc1,i,0.86
CCOc1ccc(NC(=O)CN2CCN(Cc3cccc(C)c3)S2(=O)=O)cc1,i,-0.93
Cc1ccc(-c2noc(C3CC3)n2)cc1S(=O)(=O)NC(C)C(=O)N1CCOCC1 (configuration not stated),i,0.41
CCOc1ccccc1OCc1nn2c(-c3ccoc3C)nnc2s1,i,0.31
CC(C)Cn1c(=O)c2ccccc2n2c(=O)n(CC(=O)N3CCN(c4ccccc4F)CC3)nc12,i,-1.6
Cc1cc(C)cc(NS(=O)(=O)c2c(C)sc(C)c2-c2cc(C(F)(F)F)on2)c1,i,1.2
CC(C)c1ccc(NC(=O)CCn2c(C(F)(F)F)nc3cc(S(=O)(=O)N(C)C)ccc32)cc1,i,0.97
Cn1c(CCCNC(=O)C2CCCCC2)nc2ccccc21,i,-0.21
COc1ccc(CCNc2ccc3cc(S(=O)(=O)N4CCCCC4)ccc3n2)cc1OC,i,-0.11
O=S(=O)(c1ccc(S(=O)(=O)N(Cc2ccc(F)cc2)Cc2ccc(F)cc2)cc1)N1CCCCC1,i,1.2
Cc1cccn2c(=O)c(C(=O)NC3CCCC3)cnc12,i,-0.52
COc1ccc(-c2csc(-c3nc(-c4ccc(Cl)cc4)cs3)n2)cc1OC,i,-1.5
O=C(NCc1cccc(Br)c1)c1ccccc1NC(=O)c1nsc2ccccc12,i,2.4
O=S(=O)(NCC(c1ccccc1)N1CCOCC1)c1ccccc1 (configuration not stated),i,0.88
CC1=NN(c2nc(C)cc(C)n2)C(=O)C1C (configuration not stated),i,0.85

# Ordered by the number under Anaer choline gr early (ascending): 3 of the compounds above.
SMILES	Anaer choline gr early
O=C(NCCc1csc(-c2ccccc2)n1)[C@H]1CCCN1S(=O)(=O)c1cccc2nsnc12	0.12
O=C(CC1COc2ccccc2N1Cc1ccccc1)NCc1ccccc1 (configuration not stated)	0.48
CCOc1ccc(Nc2nc(C)c(NC(=O)Cc3ccc(OC)cc3)c(Nc3ccc(OCC)cc3)n2)cc1	0.81

# New compounds follow.
SMILES,Anaer choline gr,Anaer choline gr early
COCCNC(=O)c1cc(NS(=O)(=O)c2ccc(Cl)cc2)ccc1N1CCNCC1,i,-2.1
CCc1ccc(NC(=O)N2CCc3nc(-c4ccc(C)cc4)sc3C2)cc1,i,0.51
O=C(NCCCN1CCN(c2ccc(F)cc2)CC1)c1cc(=O)n2c(nc3ccccc32)s1,i,-1.3
CC1CCN(S(=O)(=O)c2ccc3c(c2)N(CC(=O)N2C(C)CCCC2C)C(=O)CS3)CC1 (configuration not stated),i,0.65
Cc1ccc(S(=O)(=O)Nc2ccc(Sc3c(C)c(C)nc4ncnn34)cc2)cc1,i,1.3
CCCS(=O)(=O)c1nc2ccc(NS(=O)(=O)c3ccc(F)cc3F)cc2s1,i,1.4
COc1ccc(NC(=O)C2=CC(c3ccc(C)cc3)=NS(=O)(=O)N2C)cc1OC,i,-1.2
CCc1cc(Sc2ccccc2NC(=O)C2CCC2)n2nc(C)nc2n1,i,-0.65
CCCN(CCC)C(=O)CCS(=O)(=O)c1ccc2c(c1)oc(=O)n2C,i,-0.62
Cc1cc(NS(=O)(=O)c2cc(CN3C(=O)C4CCCCC4C3=O)ccc2C)no1 (configuration not stated),i,0.36
CN1CCN(c2nc(N3CCN(C)CC3)c3cnn(C)c3n2)CC1,i,0.24
CCC(=O)Nc1cccc(-c2noc(C3CCN(C(=O)c4ccc(C(C)(C)C)cc4)CC3)n2)c1,i,0.16
C=CC(N)CCC(=O)O (configuration not stated),i,0&0.23
CC(C)(C)Nc1c(-c2ccc(F)cc2)nc2sc3ccccc3n12,i,0.4
Cc1ccc(S(=O)(=O)Nc2nc3ccc(NC(=O)CCn4nc(C)cc4C)cc3s2)cc1,i,0.4
C=C(C)CN1CCN(c2cc(C)nc3c(-c4ccc(F)cc4)cnn23)CC1,i,-0.81
COC(=O)c1cc(Nc2ccc3c(c2)OCO3)c2cc(Cl)ccc2n1,i,-0.5
COc1cc(OC)cc(N2C=C(C#N)S(=O)(=O)c3ccc(F)cc32)c1,i,0.22
COc1cc(OC)c(NC(=O)CCSc2nc3c(=O)n(C)c(=O)n(C)c3n2C)cc1Cl,i,-0.01
O=C(Nc1ccc2c(c1)OCO2)c1nnc(C2CCN(S(=O)(=O)c3ccccc3)CC2)s1,i,-0.1
CCc1ccccc1N1CC(c2nc3ccccc3[nH]2)CC1=O (configuration not stated),i,0.4
CCC(=O)Nc1ccc(CC)cc1-c1nc2ccccc2n(C(C)C(=O)Nc2cccc(C)c2C)c1=O (configuration not stated),i,-0.13
Cc1c(C)n(C)c2ccc(C(=O)NC3CC3)cc12,i,-0.29
O=C(N1CCC(n2nc(-c3ccsc3)ccc2=O)CC1)C1(c2ccccc2)CC1,i,1.6
COc1ccc(Br)cc1CNC(=O)C1CCN(S(=O)(=O)N2CCCCC2)CC1,i,-0.41
CCOc1ccc2nc(NC(=O)c3sc(COc4cccc(C)c4)nc3C)sc2c1,i,0.07
Cc1ccc(C(=O)c2sc(Nc3ccccc3)nc2N)cc1,i,0.2
O=S1(=O)C[C@H](N2CCc3ccccc3C2)[C@@H](S(=O)(=O)c2ccc(Cl)cc2)C1,i,-0.41
Cc1nn(C)c2nc(OC(C)C(=O)NC3CCCCC3)cc(C(F)(F)F)c12 (configuration not stated),i,-0.42
CCn1c(SCC(=O)Nc2cccc(C)c2C)nnc1-c1nc(-c2ccc(OC)cc2)no1,i,1.1
CN(C)S(=O)(=O)c1ccc(-c2nnc(C(=O)NCc3ccccn3)o2)cc1,i,-1.2
CCN(CC)C(=O)CSc1nnc2n(Cc3ccc(C)cc3)c(=O)c3c(cnn3C)n12,i,-0.12
CCCc1cc(Sc2ccc(N)cc2)n2ncnc2n1,i,0.33
COc1ccc(-n2ccc(=O)c(-c3nc(-c4ccc(C)cc4)no3)n2)cc1,i,0.02
Cn1nc(C(=O)NCc2ccccc2)c2c1CCN(C(=O)Nc1ccccc1Cl)C2,i,0.35
COCc1nnc(C(=O)Nc2ccc(C(=O)NCCc3c[nH]c4ccc(Cl)cc34)cc2)s1,i,0.74
Cn1c(=O)n(CCC(=O)N2CCCCC2)c(=O)c2cc(S(=O)(=O)N3CCOCC3)ccc21,i,-0.57
COc1cc(NC(=O)Nc2nnc(CC(=O)N3CCc4ccccc43)s2)cc(OC)c1,i,-0.54
O=C(CCc1nc(CS(=O)(=O)c2ccccc2)no1)NCC1CCCO1 (configuration not stated),i,0.25
CCSc1nc2ccc(NS(=O)(=O)c3cccc4nsnc34)cc2s1,i,-0.32
O=C(NC1CC1)c1cccc(-c2cc(N3CCCC3)ncn2)c1,i,-0.2
COC(=O)c1cc(S(=O)(=O)N2CCC(Cc3ccccc3)CC2)c[nH]1,i,-0.4
CCC(=O)Nc1cccnc1-c1ccc(C(=O)NCc2ccccc2Cl)cc1,i,-1.2
O=C(NC1CCCc2ccccc21)C1CCN(c2ccc(-c3ccccc3)nn2)CC1 (configuration not stated),i,0.67
Cc1c(C(=O)N2CCC(C(=O)N3CC=C(c4ccccc4)CC3)CC2)sc2nc[nH]c(=O)c12,i,-2

# Record cards, as listed above.
# Results for `Cc1ccc(C)c(NC(=O)NCCCn2c(-c3ccncc3)nc3cccnc32)c1` → Anaer choline gr: i; Anaer choline gr early: -2.2
# Results for `COc1ccc(NC(=O)C2=CC(c3ccc(C)cc3)=NS(=O)(=O)N2C)cc1OC` → Anaer choline gr: i; Anaer choline gr early: -1.2
# Results for `COc1ccc(-n2ccc(=O)c(-c3nc(-c4ccc(C)cc4)no3)n2)cc1` → Anaer choline gr: i; Anaer choline gr early: 0.02

# Two compounds drawn at random from the list so far, as already listed:
SMILES,Anaer choline gr,Anaer choline gr early
Cc1c(C)n(C)c2ccc(C(=O)NC3CC3)cc12,i,-0.29
CCn1cnc2c(-c3cccc(Cl)c3)csc2c1=O,i,-0.17

# New compounds follow
SMILES,Anaer choline gr,Anaer choline gr early
CC(C)Oc1ccc(C(=O)Nc2ccc3c(c2)CCCN3S(=O)(=O)c2ccccc2)cc1,i,-0.06
CCn1c(SCc2nc(-c3ccccc3C)oc2C)nc2c(=O)[nH]cnc21,i,-0.82
CCc1onc(C)c1C1CCCN1Cc1sccc1C (configuration not stated),i,-1.4
CCOC(=O)c1ccc(NC(=O)Nc2nc3cc(C)c(C)cc3s2)cc1,i,-0.53
Cn1c(=O)c2[nH]c(-c3ccc(S(=O)(=O)O)cc3)nc2n(C)c1=O,i,0.47
COc1ccc(CNC(=O)Cn2ccc3c(SCc4ccc(F)cc4)nccc32)cc1OC,i,-0.9
Cc1noc2c1C(c1ccc(O)cc1)C1=C(CC(c3ccc(Cl)cc3)CC1=O)N2 (configuration not stated),i,0.13
O=S(=O)(c1ccccc1Cl)N1CCC2(CC1)Nc1cc(F)ccc1-n1cccc12,i,-0.01
CCOCCCN1C(=O)Cn2cccc2C1C(=O)NC1CCCCC1 (configuration not stated),i,1.4
CN(C)C(=O)C1CCN(S(=O)(=O)Cc2ccc(Cl)cc2)CC1,i,-1
O=S(=O)(c1ccc(-c2cnc(C3CCC3)o2)s1)N1CCN(c2ccccc2F)CC1,i,0.2
O=C(NCCn1c(-c2ccncc2)nc2cccnc21)Nc1cccc(Br)c1,i,-2.7
Cc1nc2sccn2c(=O)c1CCN1CCC(=C(c2ccc(F)cc2)c2ccc(F)cc2)CC1,i,-0.97&-0.44
Cc1ccccc1CNC(=O)CSc1nc2ncccc2n2cccc12,i,-1
CC1CCN(S(=O)(=O)c2ccc3c(c2)CCC(=O)N3CC(=O)N2CCCCC2C)CC1 (configuration not stated),i,-0.72
O=C(CCc1ccccc1)NCCc1nc(-c2ccccc2)n[nH]1,i,-1.4
O=C(Cn1c(=O)n(C2CC2)c(=O)c2nscc21)NCc1cccs1,i,-0.38
Cc1cc(C)cc(N2CC(c3nnc(NC(=O)c4ccccc4)s3)CC2=O)c1 (configuration not stated),i,0.32
CN(Cc1cc(Br)cc(Br)c1N)C1CCCCC1,i,-0.22&-0.62
Cn1cc(S(=O)(=O)N2CCCCC2)cc1C(=O)N1CCc2ccccc2C1,i,-0.15
CCCNC(=O)c1ccc(CSc2nc3ccncc3[nH]2)cc1,i,0.82
NS(=O)(=O)c1ccc(CCNC(=O)Cn2c(=O)[nH]c3ccccc3c2=O)cc1,i,1.1
COc1cc(OC)cc(-c2nnc(-c3ccccc3Cl)o2)c1,i,1.1
O=c1n(CCc2ccccc2)nc2c(S(=O)(=O)N3CCCCCC3)cccn12,i,-0.31

# High-throughput results as filed in PubChem.
